From PubChem BioAssay
eIF4H FP inh: inhibitors of RNA binding by human eIF4H; eIF4H fluorescence polarization binding assay; inhibition, % at 35 µM; hit rate 0.94% among 290,000;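 active means 50% or more with normal probe brightness, or confirmed in later tests; about a fifth of its hits are not listed in these tables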;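 further: calls also rest on retests at 20 µM and on dose response follow-up; 0% = protein and probe with vehicle and 100% = probe without protein; strong numbers were not always called active; many hits fall short of the cut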
Rce1 inh: yeast Ras-converting enzyme inhibition | yeast membranes, quenched prenylated peptide cleavage fluorescence | calls only | hit rate 0.27% among 290,000;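 active means fall in fluorescence gain of 50% or more versus controls, with final raw signal at or below 3038400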;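 further: plate controls were neutral control wells for no effect and wells lacking membranes for full effect; tested at 10 µM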
Target sequence (Q03530 whole entry, looked up): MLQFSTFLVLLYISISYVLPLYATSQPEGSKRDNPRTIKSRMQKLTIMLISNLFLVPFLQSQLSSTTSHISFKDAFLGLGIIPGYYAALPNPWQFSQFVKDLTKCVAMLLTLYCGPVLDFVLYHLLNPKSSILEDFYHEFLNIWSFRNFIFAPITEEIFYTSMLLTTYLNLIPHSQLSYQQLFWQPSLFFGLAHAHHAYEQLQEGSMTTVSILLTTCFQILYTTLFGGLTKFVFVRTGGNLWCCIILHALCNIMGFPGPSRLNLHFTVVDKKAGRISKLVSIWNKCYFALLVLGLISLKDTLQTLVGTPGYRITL
UUG fidelity: modulators of start codon recognition fidelity in yeast; S. cerevisiae UUG-firefly luciferase reporter, luminescence/redox ratio; activity score, % at 18.7 µM; hit rate 0.13% among 350,000; AID 602363;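 active means replicate mean at a twofold rise or more, about +100% in these data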;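 further: firefly luciferase made from a UUG start codon reports start codon fidelity; reporter light over untreated wells divided by growth signal over untreated wells; some hits fall short of that in this replicate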
HIV Env fusion: inhibitors of HIV Env-mediated cell fusion; hit rate 1.1% among 360,000; AID 651610; HeLa-JRFL Env/CEM21 cell fusion, luciferase; inhibition, % at 12.3 µM;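 active means mean replicate inhibition score of at least 50 and every replicate individually at or above 50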;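 further: 0% = plate neutral controls and 100% = maraviroc near 300 nM; one replicate is shown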
PABP FP inh: PABP-poly(A) binding inhibition | P11940 | PABP-poly(A) RNA binding, fluorescence polarization | inhibition, % at 35 µM | hit rate 1% among 290,000 | AID 2014;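 active means 50% or more with normal probe brightness, or confirmed in later tests; about a fifth of its hits are not listed in these tables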;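 further: calls also rest on retests at 20 µM and on dose response follow-up; controls were probe without protein and protein plus probe with vehicle; some compounds called inactive have numbers as strong as hits; many hits fall short of the cut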
MT1-MMP act inh: MT1-MMP (human) activation inhibition | HT1080 RFP-PRO-GFP cells, GFP/RFP ratio fluorescence, overnight; percent of plate control window, DMSO zero | GFP/RFP ratio change, % at 20 µM | AID 651647 | P50281 | hit rate 0.061% among 360,000;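 active means GFP/RFP ratio change of at least 30% with cell ATP level not reduced by more than half and red fluorescence within 50% of control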; further: strong numbers were not always called active
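Material – HT1080 RFP-PRO-GFP cells · Control set – DMSO wells and RFP-L50D-GFP cells · Incubation – overnight cell settling, then overnight compound exposure, 37 °C, 5% CO2 · Compound dosing – single-point 20 µM compound, 1% DMSO · Read-out – GFP/RFP fluorescence ratio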
CSC inhib: cancer stem cell inhibition; cancer stem cell-like cells viability, luminescence; inhibition, % at 7.5 µM; hit rate 1.1% among 300,000;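 active means mean at 75% or more and at least half the replicates too; tested in HMLE shEcad cells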;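 further: 0% = median of negative and 100% = median of positive control wells; the first replicate is given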
eIF4H FP inh retest: further read-out of eIF4H FP inh, marked with its call; inhibition, %; compound at 20 µM; confirmation average;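 mean of two retest wells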
PABP FP inh retest: also measured in PABP FP inh; calls as there; inhibition, %; compound at 20 µM; confirmation repeats;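 mean of two retest wells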
MT1-MMP act inh RFP: recorded beside MT1-MMP act inh, whose call it bears; RFP signal change, %; measured here: RFP expression control read;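 0 = vehicle wells; hits needed this value within 50% of zero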
* marks the source's active call; other numbers are inactive results; i = inactive; . = no result given; & = joins results of further samples.

SMILES	eIF4H FP inh	Rce1 inh	UUG fidelity	HIV Env fusion	PABP FP inh	MT1-MMP act inh	MT1-MMP act inh RFP	CSC inhib	others
O=C(CCS(=O)(=O)c1cccs1)Nc1ccc(C(=O)NCc2ccccc2)cc1	-11	i	11	-34	13	1	9	-5
COc1ccc(C(=O)NC(=S)N(C)C2CCCCC2)cc1Br	-5	i	-11	7	1	3	1	21
Cc1ccc(NS(=O)(=O)c2ccc3c(c2)CCC(=O)N3)cc1	.	.	3&0	-14	.	5&2	0&0	.
Oc1ccccc1CN1CCN(C(O)(c2ccccc2)c2ccccc2)CC1	-4	i	-6	7	-12	-3	-4	6
O=C(NCCc1ccc(Cl)cc1)c1cc(-c2ccccn2)nc2ccccc12	.	i	-11	11	.	-4	-4	18
O=C1c2ccccc2C(=O)N1CSc1nnc(Nc2ccccc2)s1	-1	i	.	-10	8	-3	-2	-21
O=C(NCCCN1CCOCC1)c1ccc(CS(=O)(=O)Cc2ccccc2Cl)o1	-2	i	-4	.	6	1	0	8
COc1cccc(NC(=O)C(C)OC(=O)CCCNC(=O)c2ccc(Cl)cc2)c1 (stereo unspecified)	5	i	-15	.	15	2	4	2
O=C(COC(=O)/C=C/c1ccco1)NCCN1C(=O)CSC1=O	.	.	-8	-19	.	-1	1	.
O=S(=O)(Nc1ccc(Cc2ccncc2)cc1)c1ccc(Br)s1	-14	i	-8	-38	-11	-18	-16	5
N#Cc1ccsc1NC(=O)CSc1nncs1	.	.	-32	.	.	-17	4	-8
CC(C)CCN1CCC[C@]2(N[C@H](c3ccccc3)[C@@H]3C(=O)N(Cc4ccccc4)C(=O)[C@@H]32)C1=O	.	.	-2	-5	.	-5	2	.
Cc1ccc2cccc(Oc3ncnc4sc(C)c(C)c34)c2n1	-2	i	.	-10	-10	-4	-4	-14
COc1cc(OC)nc(Nc2nc(C(N)COCc3ccccc3)cs2)n1 (stereo unspecified)	.	.	-8	97*	.	0	4	.
COc1cccc(C(=O)CC(=O)C(=O)Nc2cc(OC)c(OC)c(OC)c2)c1	100	i	.	.	15	.	.	-9	eIF4H FP inh retest=-3;PABP FP inh retest=-4
CCOc1ccc(CCNC(=O)CCOc2cc(C)ccc2C)cc1OCC	-13	i	20	30	5	-1	-1	-5
Cc1csc(=O)n1CC(=O)OCC(=O)Nc1ccc(F)c(F)c1	.	i	7	2	.	1	3	-11
CCOC(=O)CSc1nc2ccccc2n1CC(=O)N1CCN(c2ccccc2)CC1	0	.	-19	.	6	0	1	-12
NC(=O)CC(NC(=O)Cc1ccc(Br)cc1)c1ccc(N2CCN(c3ccccn3)CC2)c([N+](=O)[O-])c1 (stereo unspecified)	-3	i	-1	25	21	6	-13	32
C[C@H](NC(=O)C1CCN(S(=O)(=O)c2ccccc2)CC1)C(=O)NCc1ccc(F)cc1	-7	i	-3	-1	0	1	2	-17
C/C(=N\NC(=O)c1ccc(N(C)C)cc1)c1ccc(C)c(C)c1	-13	i	-20	-17	-12	1	8	3
Cc1ccc(NC(=O)CCNC(=O)c2ccccc2)cc1F	-16	i	-18	-17	0	2	4	-8
CN(Cc1nccs1)C(=O)C1CCC(=O)N(CCc2ccc(Cl)cc2)C1 (stereo unspecified)	-4	i	-20	-3	-5	-1	0	-13
O=C(CCn1c(=O)oc2ccccc21)NCCN1CCc2ccccc2C1	-1	i	-6	-11	-6	0	3	-4
Cc1cc(C(=O)CSc2nnc(CCC(N)=O)n2C)c(C)n1C1CC1	.	.	-5	-11	.	3	2	.
COc1ccc(CNC(=O)C(=O)NCc2cccnc2)cc1	-4	i	8	11	-10	-5	2	-1
COC(=O)c1ccc(C(=O)OC)c(NC(=O)CN2CCCCC2)c1	0	i	.	-7	-15	2	3	-5
CCOC(=O)c1c(C)[nH]c(C)c1S(=O)(=O)NCc1ccccc1OCC	-1	i	.	-1	-4	-1	4	-6
COc1cc(OC)cc(-c2nnc(SCC(=O)N(Cc3ccccc3)C(C)(C)C)o2)c1	-6	i	-6	36	-5	-5	-15	113*
Cn1c(CCN2CCCCC2)nc2cc(NS(=O)(=O)c3ccccc3)ccc21	-13	i	-13	-2	-9	-6	-7	8
O=[N+]([O-])c1ccc(-[n+]2ccc3ccccc3c2)c([N+](=O)[O-])c1	.	i	-6	-326	.	7	-8	121*
c1ccc(-c2cn(C[C@H]3CC[C@@H]([C@@H]4CC[C@H](Cn5cc(-c6ccccc6)nn5)O4)O3)nn2)cc1	-4	i	-9	-4	-6	0	0	1
COC(=O)c1c(NC(=O)C(=O)NCCCN2CCOCC2)sc2c1CC(C)(C)OC2	1	i	-6	1	-5	-29	-47	5
Cc1cc(C)c(S(=O)(=O)N(CC(=O)O)CC(=O)O)c(C)c1	1	i	-2	-53	2	2	6	26
NC(=O)CSc1nnc(-c2ccco2)n1-c1ccccc1	-6	i	-13	10	-2	0	5	.
CN(C)S(=O)(=O)NCCNC(=O)c1cc(OCC(F)(F)F)ccc1OCC(F)(F)F	-5	i	.	2	-7	-1	6	-7
Cn1c(NNC(=O)c2ccc(C(C)(C)C)cc2)cc(=O)n(C)c1=O	-5	i	-6	6	3	-2	0	-2
CCc1nnc(NC(=O)CCc2ccccc2OC)s1	-2	i	-10	-3	-12	5	2	3
O=C(CS(=O)CC(=O)NC12CC3CC(CC(C3)C1)C2)Nc1ccc(F)cc1 (stereo unspecified)	9	i	-15	6	6	1	-3	-4
NC(=O)c1ccsc1NC(=O)c1nc(-c2ccccc2)n(-c2ccccc2)n1	-5	i	-28	-159	5	-15	-13	7
Cc1ccc(NC(=O)CN2CCc3ccccc3C2)cc1S(=O)(=O)N(C)C	1	i	.	0	14	-3	0	-11
O=C(CSc1nnc(CNC(=O)c2c(F)cccc2Cl)o1)c1ccccc1	6	i	-21	-12	-2	4	3	1
CC(C)(C)c1nnc(NC(=O)C2c3ccccc3Oc3ccccc32)s1	-2	i	-23	5	17	0	-3	.
COc1ccc(-c2nnc(SCC(=O)NNC(=O)c3ccc(C)cc3)o2)cc1	-3	i	-24	-9	-2	3	0	2
O=C(Nc1cccc(S(=O)(=O)NC2=NCCCCC2)c1)c1cc(-c2ccccc2)nc2ccccc12	2	i	-20	-8	-19	0	-10	-7
COc1ccccc1N1CCN(C(=O)C(C)N(c2ccc(C)c(C)c2)S(C)(=O)=O)CC1 (stereo unspecified)	-8	i	-9	.	-2	8	-7	1
Cc1cc(NC(=O)c2ccc(N3C(=O)C4C5C=CC(C5)C4C3=O)cc2)no1 (stereo unspecified)	-15	i	.	-16	-7	2	2	9
Cc1cccc(CN2CCC(C(=O)Nc3cccc(-c4cscn4)c3)CC2)n1	-9	i	-21	5	-6	0	-2	9
O=C(Nc1cc2c(=O)n(-c3ccc(Oc4ccccc4)cc3)ccc2oc1=O)c1ccccc1	10	i	-16	-4	3	-4	-9	-3
CC(C)(C)NC(=O)CON=C1c2ccccc2-c2ccccc21	-13	i	-6	5	16	-9	-11	5

Molecules listed so far with two or more sulfur atoms:
SMILES	eIF4H FP inh	Rce1 inh	UUG fidelity	HIV Env fusion	PABP FP inh	MT1-MMP act inh	MT1-MMP act inh RFP	CSC inhib	others
O=C(CCS(=O)(=O)c1cccs1)Nc1ccc(C(=O)NCc2ccccc2)cc1	-11	i	11	-34	13	1	9	-5
O=C1c2ccccc2C(=O)N1CSc1nnc(Nc2ccccc2)s1	-1	i	.	-10	8	-3	-2	-21
O=S(=O)(Nc1ccc(Cc2ccncc2)cc1)c1ccc(Br)s1	-14	i	-8	-38	-11	-18	-16	5
N#Cc1ccsc1NC(=O)CSc1nncs1	.	.	-32	.	.	-17	4	-8

(next part)
SMILES	eIF4H FP inh	Rce1 inh	UUG fidelity	HIV Env fusion	PABP FP inh	MT1-MMP act inh	MT1-MMP act inh RFP	CSC inhib	others
C[C@H]1CN([C@@H](C)CO)C(=O)CCCn2nncc2CO[C@@H]1CN(C)S(=O)(=O)c1ccc(-n2cccn2)cc1	.	.	0&-3	4	.	1	2	.
CCCc1ccc2oc(C(=O)N(C)Cc3ccn[nH]3)c(C)c2c1	-12	i	-8	-45	-3	5	-1	8
Nc1cc(Cl)nc(N/N=C/c2ccc([N+](=O)[O-])cc2)n1	-2	i	-13	19	-8	-1	-2	-8
NC(=O)NC(Cc1ccccc1)C(=O)NNC(=O)COc1ccccc1Cl (stereo unspecified)	.	.	12	-2	.	3	-1	-19
O=C(CN1CCCC1)Nc1c2c(nc3ccccc13)N(Cc1ccccc1)CC2	-2	i	-8	.	45	-2	4	-10
Cc1cc(/C=C(\C#N)C(=O)NCc2ccccc2)c(C)[nH]1	.	.	-20	-63	.	-3	0	.
CCOCCOc1cccc(C(=O)NC(c2ccccc2)c2ccccc2)c1	6	i	-30	3	2	-2	-1	-13
CCc1ccc(NC(=S)N(CCCN2CCN(C)CC2)Cc2cccs2)cc1	-3	i	-22	-16	-7	-9	-4	6
CCOC(=O)c1ccc2[nH]c3c(c2c1)CN(C)CC3	0	i	0	-4	-4	3	4	-9
O=C(NCc1cccnc1)C1CC(c2ccccc2O)=NO1 (stereo unspecified)	-16	i	-14	1	5	-12	-4	-6
CCOC(=O)N(C)c1c(CC)nc2c(OCc3ccc(C(F)(F)F)cc3)cccn12	.	.	-17	26	.	-11	-12	.
COc1ccc(CCNc2ccc(N3C(=O)CC(C)C3=O)cc2[N+](=O)[O-])cc1 (stereo unspecified)	-2	i	.	-3	4	5	-7	-1
Cc1ccc(S(=O)(=O)NNC(=O)c2ccc(NC(=O)C3CC3)cc2)cc1	5	i	2	0	-3	3	1	4
COc1cc2c(cc1OC)CN(C(=O)c1oc3ccccc3c1C)CC2	-3	i	.	3	-4	-7	-4	.
CCCCCCOc1ccc(N2C(=O)CC(N(CCc3ccc(S(N)(=O)=O)cc3)C(C)=O)C2=O)cc1 (stereo unspecified)	0	i	.	4	-10	0	-5	-12
CC1CCc2nn(CC(=O)NCCCN3CCOCC3)cc2C1 (stereo unspecified)	-10	i	-12	7	-4	4	11	.
COc1ccccc1C(CNC(=O)c1cccc(S(=O)(=O)NCc2ccccc2)c1)N(C)C (stereo unspecified)	.	i	-14	-6	.	-3	-5	-1
Cc1sc2ncnc(-n3cnc4ccccc43)c2c1C	0	i	-13	.	4	-3	-4	-17
CCCOC(=O)c1ccc(Oc2c(-c3ccc(OC)cc3O)n[nH]c2C)cc1	-3	i	-13	.	7	7	3	132*
CC(NC(=O)C1CCC(CNS(=O)(=O)c2ccc3c(c2)C(C)(C)C(=O)N3C)CC1)c1ccccc1 (stereo unspecified)	-4	i	6	33	-9	-2	-17	-9
CC1(C)CC(=O)c2c(n(-c3cccc4ccccc34)ccc2=O)C1	2	i	-7	.	0	-3	0	-13
N#Cc1c(NC(=O)C2CC(Cl)=CCC2C(=O)O)sc2c1CCCCC2 (stereo unspecified)	1	i	.	0	0	2	2	8
O=S(=O)(c1ccc(NC(=S)NN=C(C2CC2)C2CC2)cc1)N1CCOCC1	-1	i	.	6	-6	-1	2	-15
Cc1ccccc1CNC(=O)C(=O)NCC1OCCCN1S(=O)(=O)c1ccc(F)cc1C (stereo unspecified)	-10	i	-10	-198	-6	2	-7	14
COc1ccc2[nH]c3c(c2c1)CCN1C(=O)N([C@@H](C)C(=O)NC2CCCCC2C)C(=O)[C@]31C (stereo partly specified)	-10	i	5	.	-4	-1	-1	2
CCCCCC/C=N/Nc1nnc(Cc2ccccc2)c(=O)[nH]1	3	i	-11	-7	4	0	-2	.
O=C1CC(Cc2ccccc2)C(=O)N1c1ccc(Cl)cn1 (stereo unspecified)	5	i	-6	-78	-4	1	-1	11
COc1cc(OC)cc(C(=O)NNC(=O)c2ccccc2Br)c1	8	i	.	-8	2	2	3	0
